From PubChem
PMP22 txn = modulators of PMP22 gene transcription in S16 Schwann cells; S16 Pmp22-F2sN Schwann cells (luciferase reporters placed in the Pmp22 gene), FLuc/NLuc coincidence luminescence, 24 h; Potency, µM (doses to about 57.5 µM), for the others: at the highest dose activity change, negative = inhibition, actives largely listed as inhibitors; 43,000 compounds, 2% hits; active = clear falling dose curves in both reporters; inconclusive = both reporters move, but less clearly or upward; inactive = either reporter flat; the % is the NLuc reporter signal; further: on the % scale 0 is the no-effect control and ±100 the full control effect; some results filed as inactive show a strong effect at the top dose
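Transcriptional readout in edited S16(c9) cells: two luciferases reported from the Pmp22 locus, measured in turn after 24 h compound incubation.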
HTT prom inh = inhibitors of huntingtin promoter activity; Potency, µM (doses to about 57.5 µM), for inactives: at the highest dose activity change, negative = inhibition, hits mostly inhibitors; AID 1508623; HEK293 HTT promoter firefly luciferase reporter (activity 0% = vehicle and -100% = no light), 24 h; 48,000 compounds, 0.93% hits; active means well fitted inhibition curve with a large enough effect; inconclusive means small, poorly fitted or top-dose-only effect; inactive means no such curve, though single readings can be large or run the other way; further: nearly all actives have a fitted effect of over 50% in size
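Luminescence was read after Dual-Glo reagent and a 10 min room-temperature incubation. Values were normalized to vehicle (0% activity) and zero RLU (-100% activity). Reporter HEK293 cells had been exposed to compounds (up to 57.5 uM final) for 24 h.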
* = called active by the depositor; ? = inconclusive; . = not tested or not shown; [ ] = remark or other dose. Potency means the concentration at half of the fitted maximal effect.

SMILES	PMP22 txn	HTT prom inh
Cc1cccc(C)c1-n1ncc(C(=O)O)c1C1CCN(C(=O)OC(C)(C)C)CC1	4.8%	16.8%
CC1(C)OC2CC3C4CC(F)C5=CC(=O)C=CC5(C)C4C(O)CC3(C)[C@]2(C(=O)CO)O1 (stereo partly specified)	.	1.2%
CC(=O)c1ccc(N2C(=O)N(Cc3ccccc3C#N)c3ccccc3S2(=O)=O)cc1	?	-20.7%
CCc1c(C)nc2nncn2c1NCc1ccc(Cl)cc1	?	?
CC(=O)N1CCCc2ccc(NC(=O)c3ccc(C(F)(F)F)cc3)cc21	-21.6%	?
Cn1c2ccccc2c2c(C(=O)N3CCN(c4cccc(Cl)c4)CC3)cn(C3CCCCC3)c(=O)c21	?	?
Cc1cc(S(=O)(=O)Nc2ccc(C(=O)O)cc2)c(C)c(S(=O)(=O)c2ccc(Cl)cc2)c1	9.3%	-12.0%
Cc1cc(C(=O)N2CCN(c3cccc(Cl)c3)CC2)c2c(C)nn(-c3ccccc3Cl)c2n1	?	?
Cc1ccc(CNC(=O)CCn2cnc3ccccc3c2=O)cc1	-24.9%	3.3%
CCC(C(=O)Nc1cc(C)ccc1C)n1c(=O)c(C(F)(F)F)nc2ccccc21 (stereo unspecified)	?	-28.6%
O=C(Nc1ccccc1)N1CCN(C(=O)c2nsc3ccccc23)CC1	8.5%	-12.7%
COc1cccc(-c2nn3c(=O)cc(CN4CCN(S(=O)(=O)c5ccc(C)cc5)CC4)nc3s2)c1	-49.5%	1.5%
CCC12CN3CC(CC)(CN(C1)C3c1c[nH]c3ccccc13)C2=O (stereo unspecified)	?	-26.1%
Cc1ccc(OCC(=O)Nc2ccc3nc(Nc4cccc(Cl)c4)cc(C)c3c2)cc1	-16.7%	-3.2%
C[C@@H](Cc1cc2c(c(C(N)=O)c1)N(CCCO)CC2)NCCOc1ccccc1OCC(F)(F)F	.	-11.4%
CC(C)CCNC(=O)c1ccc2c(c1)nc1n2CCCCC1	-14.7%	-19.9%

Two successive entries out of the list so far:
SMILES	PMP22 txn	HTT prom inh
Cc1ccc(CNC(=O)CCn2cnc3ccccc3c2=O)cc1	-24.9%	3.3%
CCC(C(=O)Nc1cc(C)ccc1C)n1c(=O)c(C(F)(F)F)nc2ccccc21 (stereo unspecified)	?	-28.6%

Next section:
SMILES	PMP22 txn	HTT prom inh
COC(=O)C(C)n1nnc2sc(-c3ccccc3)cc2c1=O (stereo unspecified)	-11.8%	23.5%
COc1ccc(Cl)cc1NC(=O)c1c(NCc2ccc(C)o2)sc2c1CCCCC2	?	-10.9%
CCOC(=O)C1CCN(c2ncnc3c2c(-c2ccccc2)cn3-c2ccc(Cl)cc2)CC1	10.1%	-11.8%
CC(=O)c1ccc(NC(=O)Cn2c(-n3nc(C)cc3C)nc(C)c(C)c2=O)cc1	-19.0%	-19.1%
COc1cccc2cc(C(=O)N3CCN(c4cc(C)ccc4C)CC3)c(=O)oc12	-2.5%	-9.7%
Cc1cc(C)cc(NC(=O)Cn2nnc(-c3nc(-c4ccncc4)no3)c2N)c1	-18.8%	-13.1%
O=C(C1CC1)N1CCc2cc(Br)cc(S(=O)(=O)Nc3ccc(F)c(F)c3)c21	?	?
COc1ccc(NC(=O)CSc2nncn3c2cc2oc(C)cc23)cc1OC	-7.2%	11.9%
CCOc1ccc(C(=O)Nc2ccc3c(c2)N(C(C)=O)CCC3)cc1OCC	?	?
Cc1ccc(NC(=O)CSc2nc(=O)n(Cc3ccncc3)c3c2CCC3)cc1Cl	-26.2%	-12.8%
CCc1cccc(C)c1NC(=O)CCCn1c(=O)c2cccn2c2cccnc21	-24.2%	4.6%
Cc1ccc(CNC(=O)CCc2c(C)nc3nc(CNC(=O)OC(C)(C)C)nn3c2C)cc1	-35.4%	-20.6%
COc1ccc(Cn2c(CNS(=O)(=O)c3ccc(C)c(C)c3)nc3cccnc32)cc1	2.5%	0.6%
CN(C)c1ccc(CNC(=O)CN2C(=O)CSc3ccc(S(=O)(=O)N4CCCC4)cc32)cc1	-1.5%	-2.8%
COc1ccc(-c2ccc3ncc4c(c3c2)n(-c2ccc(N3CCNCC3)c(C(F)(F)F)c2)c(=O)n4C)cn1	.	?
COc1ccc(C)cc1NC(=O)C1CCN(S(=O)(=O)c2ccc3[nH]c(=O)oc3c2)CC1	-13.0%	-12.7%
Cc1ccc(C)c(Nc2nn3c(=O)c4ccc(C(=O)NCCc5ccccc5)cc4nc3s2)c1	13.3µM*	7.6%
Cc1ccc(C)c(CN2C(=O)c3ccccc3S(=O)(=O)c3ccc(C(=O)N4CCOCC4)cc32)c1	1.7%	-21.5%
O=c1c2ccccc2nc2n1CCc1c-2[nH]c2ccccc12	.	19.6%
CCOc1ccc(-c2c(C)nn3c(C)c(C(=O)Nc4cc(C)cc(C)c4)cnc23)cc1OCC	-23.9%	-6.3%
COc1ccc(CCNC(=O)C(=O)Nc2ccc(C)cc2)cc1OC	-26.1%	-10.1%
O=C(NCc1ccco1)C1CCN(C(=O)N2CCOc3ccccc32)CC1	-3.7%	2.0%
COc1cccc(C(=O)NCC(=O)OCc2cc(=O)n3c(C)csc3n2)c1	-23.0%	4.4%
COc1cccc(CN2CCc3nc(Nc4ccc5c(c4)OCCO5)ncc3C2)c1OC	?	?
Cc1cc(C)c2c(CC(=O)N(Cc3ccccc3)C3CCS(=O)(=O)C3)coc2c1 (stereo unspecified)	-15.8%	-26.7%
Cc1cc(C)cc(N(CC(=O)Nc2c(C)cc(C)cc2C)S(=O)(=O)c2c(C)nn(C)c2C)c1	-0.2%	-25.7%
CCN(CC)C(=O)c1sc2c(c1C)c(=O)n(-c1ccccc1)c(=O)n2Cc1c(C)cc(C)cc1C	?	-0.7%
O=C(NCc1ccc(Cl)cc1)C1CCN(S(=O)(=O)c2cccc3nonc23)CC1	-25.9%	-17.0%
COc1cccc2c1C(=O)c1c(O)c3c(c(O)c1C2=O)C[C@@](O)(C(C)=O)C[C@@H]3O[C@H]1C[C@H](N)[C@H](O)[C@H](C)O1	.	-32.7%
COc1cccc(NC(=O)C2CCC(CNS(=O)(=O)c3ccc4c(c3)CCCC(=O)N4)CC2)c1 (stereo unspecified)	?	-3.8%
CC(=O)c1ccc(NC(=O)C2CCCN(S(=O)(=O)c3ccc4c(c3)CCCN4C(C)=O)C2)cc1 (stereo unspecified)	-18.0%	-24.7%
CCCN1CCN(c2ncnc3sc(C(=O)Nc4c(C)cc(C)cc4C)c(C)c23)CC1	?	-9.6%

Part of the list above in order of molar mass, smallest number first.
SMILES	PMP22 txn	HTT prom inh
O=C(NCc1ccc(Cl)cc1)C1CCN(S(=O)(=O)c2cccc3nonc23)CC1	-25.9%	-17.0%
CCCN1CCN(c2ncnc3sc(C(=O)Nc4c(C)cc(C)cc4C)c(C)c23)CC1	?	-9.6%
COc1cccc(NC(=O)C2CCC(CNS(=O)(=O)c3ccc4c(c3)CCCC(=O)N4)CC2)c1 (stereo unspecified)	?	-3.8%
CCN(CC)C(=O)c1sc2c(c1C)c(=O)n(-c1ccccc1)c(=O)n2Cc1c(C)cc(C)cc1C	?	-0.7%
COc1cccc2c1C(=O)c1c(O)c3c(c(O)c1C2=O)C[C@@](O)(C(C)=O)C[C@@H]3O[C@H]1C[C@H](N)[C@H](O)[C@H](C)O1	.	-32.7%

(next part)
SMILES	PMP22 txn	HTT prom inh
COc1ccc(Cl)cc1NC(=O)Cn1c(=O)oc2cc(S(=O)(=O)N3CCCCCC3)ccc21	-29.1%	?
COc1ccc(N2Cc3cccc(C(=O)Nc4ccc(F)cc4)c3C2=O)cc1	?	-17.8%
Cc1cn(C)c(CC(=O)NCc2ccccc2)c1C(=O)O	28.0%	-9.5%
CN(C)CCN1C(=O)c2cccc3cc(N)cc(c23)C1=O	.	?
O=C(NCc1cccs1)c1ccc(Cn2c(SCc3cccc(F)c3)nc3cccnc32)cc1	?	?
Cn1cc(-c2cc3n(n2)CCC(=O)N3CCCC(=O)Nc2ccc(Cl)cc2)c2ccccc21	?	-18.5%
CC1CN(c2cc3c(cc2F)c(=O)c(C(=O)O)cn3-c2ccc(F)cc2F)CCN1 (stereo unspecified)	.	-3.8%[6.01 µM]
Cc1ccc(C)c(Nc2ncnc3c2cnn3-c2ccc(F)cc2)c1	?	31.1%[activator]
O=C(Nc1ccc(Br)cc1)Nc1nc2c(s1)CCCCCC2	?	-10.4%
COc1cc(-c2noc(-c3ccc(N(C)C)c([N+](=O)[O-])c3)n2)cc(OC)c1OC	-2.6%	-4.0%
Cc1ccccc1NC(=O)c1ccc(Cl)c(S(=O)(=O)N2CCCCCC2)c1	-53.4%	?
Cc1ccc(NC(=O)c2cnc3cc(C)ccn3c2=O)c(C)c1	-8.4%	58.0%[activator]
Cc1cccn2c(=O)c(C(=O)NCc3ccccc3Cl)c(O)nc12	2.0%	-6.6%
O=C(Nc1cccc(Cl)c1)N1CC2CCCN2c2ccccc21 (stereo unspecified)	?	-23.3%
COCCCNC(=O)CS(=O)Cc1nc(-c2cccc(C)c2)oc1C (stereo unspecified)	3.2%	2.5%
C[C@H]1NCc2cc(-c3ccc4c(=O)c(C(=O)O)cn(C5CC5)c4c3OC(F)F)ccc21	.	-4.8%[25.2 µM]
COC(=O)c1c(NC(=O)Cc2coc3cc(C)ccc23)sc2c1CCCC2	-8.2%	-16.6%
COc1ccc(C(CC(=O)Nc2ccc(C)c(C)c2)N2Cc3ccccc3C2=O)cc1OC (stereo unspecified)	22.8%	-22.7%
Cc1cccc(CCNC(=O)c2cc3c(s2)-c2c(C)cccc2OC3)c1	?	-33.8%
Cc1cc(C)cc(OCC(=O)NCC2(N3CCOCC3)CCCCC2)c1	-19.5%	-16.4%
O=C(Cn1ncc2c(=O)oc3ccccc3c21)NCc1ccccc1Cl	-23.4%	-18.9%
COc1ccc2nc(N(Cc3cccnc3)C(=O)c3ccc4c(c3)OCCO4)sc2c1	4.8%	-4.3%
COc1cccc(C(c2sc3nc(-c4ccco4)nn3c2O)N2CCCC2)c1 (stereo unspecified)	0.0%	16.5%
COC(=O)c1cccc(-n2c(CCC(=O)O)ccc2-c2cccs2)c1	8.8%	7.9%
CCOc1ccc(CCNC(=O)CCCc2nnc3n(CC(C)C)c(=O)c4sccc4n23)cc1	-10.8%	-17.4%
COC(=O)c1sc2cccc(F)c2c1S(=O)(=O)N1CCN(c2ccc(C)cc2C)CC1	?	-9.0%
CCCN1C(=O)c2oc3cc(C)cc(C)c3c(=O)c2C1c1ccc(F)cc1 (stereo unspecified)	-4.0%	-21.1%
Cc1nc2ccc(S(=O)(=O)NC(CC(C)C)C(=O)N3CCN(c4ccc(F)cc4)CC3)cc2s1 (stereo unspecified)	?	?
CCOC(=O)C(C)NC(=O)c1cc2c(=O)[nH]c3ccc(C)cc3c2s1 (stereo unspecified)	-23.5%	-13.8%
COc1cccc(NC(=O)CCNS(=O)(=O)c2ccc(Br)s2)c1	-10.5%	-7.3%
COC(=O)c1cc2sc(Cl)cc2n1Cc1nc(-c2ccc(OC)cc2)oc1C	?	-7.0%
CCCCn1nc(NC(=O)c2cccc(Cl)c2)c2cc3ccc(C)cc3nc21	10.1%	-19.1%
O=C(CC1Sc2ccc(C(F)(F)F)cc2NC1=O)Nc1ccc(Cl)c(C(F)(F)F)c1 (stereo unspecified)	?	-9.3%
CC(=O)c1ccc(N2CCN(c3ccc(NC(=O)c4ccc(F)cc4)cc3C(=O)O)CC2)cc1	0.3%	-13.6%
Cc1cccc(C)c1NC(=O)CS(=O)(=O)c1nc(-c2ccc(Cl)cc2)cn1-c1ccccc1	-84.4%	?
COc1cccc(CNC(=O)Cn2c(=O)oc3cc(S(=O)(=O)N4CCC(C)CC4)ccc32)c1	?	?
O=C(Nc1ccc(Cl)c(C(F)(F)F)c1)C1CCN(S(=O)(=O)c2cccc3nonc23)CC1	-20.6%	?
CCc1nc2nc(C)c(NS(=O)(=O)c3ccc(C(C)(C)C)cc3)c(=O)n2[nH]1	25.0%	-6.0%
Cc1ccc(CNc2c(C)c(C)nc3nncn23)cc1	?	?
CCOC(=O)c1ccccc1NC(=O)N1CCN2CCCCC2C1 (stereo unspecified)	-4.4%	-2.8%
COc1cccc(CNS(=O)(=O)c2cc(Br)cc3c2N(C(C)=O)C(C)C3)c1 (stereo unspecified)	-7.6%	-4.9%
O=C(COc1ccc(Cl)cc1)Nc1ccc(O)c(-c2nc3ccccc3s2)c1	?	16.3%
CCOc1ccc(-c2cc(CCCC(=O)NCCc3ccc(Cl)cc3)no2)cc1	-13.6%	1.78µM*
Cc1cc(C)c(NC(=O)CN2C(=O)CCn3nc(-c4cccn4C)cc32)c(C)c1	9.9%	-23.6%
C=C(C)Cn1c(SCC(=O)c2ccccc2)nc2sc3c(c2c1=O)CCCC3	?	-17.0%
COc1ccccc1N1CCN(C(c2ccccc2)c2nnc(-c3ccccc3Cl)o2)CC1 (stereo unspecified)	?	-11.0%
COc1ccc(CCNC(=O)c2c(O)nc3cc(C)ccn3c2=O)cc1OC	-61.8%	-4.4%
O=C(OCc1ccccc1Cl)c1ccc(-c2nnn(Cc3ccc(F)cc3)n2)cc1	-18.9%	-15.6%
